# Screens deposited in PubChem BioAssay by National Center for Advancing Translational Sciences (NCATS).
# CtBP-E1A blk = inhibitors of CtBP/E1A interaction; activity change, % (concentration not given with the values); AlphaScreen GST-E1A/His-CtBP binding, 1536-well; stronger effect = lower value; control for the full effect not named in the record; AID 651724; hit rate 0.49% among 340,000; in the data active means activity change below about -65%; inconclusive means about -30% to -65%; inactive means above about -30%; also: % is scaled to controls: 0 for no effect and ±100 for the full control effect
#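 In 5 uL wells, 23 nL compound meets equimolar GST-E1A and His-CtBP (5X stock 125 nM each) for 2 h, 37 °C. Beads (5X, 50 ug/mL) then 1 h, 37 °C, dark.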
# TRPML1 ag = human mucolipin-1 channel agonism | Q9GZU1 | activation, % (no concentration beside the values) | hit rate 0.12% among 410,000 | TRPML1-expressing cells, Ca2+ dye fluorescence, FDSS; host cell line not named in the record; reference of the full effect not given here | AID 624414; in the data active = activation above about 50%; inconclusive = about 30% to 50%; inactive = below about 30%; also: 0% is about no effect; the text of the record puts the active cut at 80%
# Target sequence (Q9GZU1 whole entry, looked up): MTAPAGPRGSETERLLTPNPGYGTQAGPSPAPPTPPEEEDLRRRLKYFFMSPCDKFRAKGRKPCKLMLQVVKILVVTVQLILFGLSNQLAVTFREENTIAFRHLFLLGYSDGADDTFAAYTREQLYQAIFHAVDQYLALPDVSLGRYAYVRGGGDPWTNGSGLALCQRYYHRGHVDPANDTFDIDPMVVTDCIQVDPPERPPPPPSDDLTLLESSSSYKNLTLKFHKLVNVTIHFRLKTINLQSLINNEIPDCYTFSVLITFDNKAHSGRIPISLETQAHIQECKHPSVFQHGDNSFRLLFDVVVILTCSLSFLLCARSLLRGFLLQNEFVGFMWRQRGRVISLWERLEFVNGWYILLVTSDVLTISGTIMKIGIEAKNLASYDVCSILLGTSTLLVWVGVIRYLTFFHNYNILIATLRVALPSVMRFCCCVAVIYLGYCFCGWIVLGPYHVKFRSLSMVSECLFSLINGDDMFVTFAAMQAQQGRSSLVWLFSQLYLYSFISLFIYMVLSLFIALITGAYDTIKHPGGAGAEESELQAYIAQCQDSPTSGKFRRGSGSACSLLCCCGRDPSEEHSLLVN
#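 Tet-induced TRPML1-DL cells, 1,500 per well, cultured overnight, were loaded with a no-wash Ca2+ dye for 45–90 min. Calcium fluorescence was recorded on the FDSS for 110 s after compound addition, before the EC80 agonist (4 uM 54-4) was added.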
# D2 ag = agonists of human D2 dopamine receptor (beta-arrestin) | P14416 | DiscoveRx PathHunter D2 beta-arrestin, luminescence, 90 min; 100% = 57 uM dopamine signal | activation, % (no concentration beside the values) | hit rate 0.084% among 360,000; in the data active = activation above about 40%; inconclusive = about 15% to 40%; inactive = below about 15%; also: compound concentration not given in the record; the text of the record calls up to 30% inactive
# Target sequence (P14416 whole entry, looked up): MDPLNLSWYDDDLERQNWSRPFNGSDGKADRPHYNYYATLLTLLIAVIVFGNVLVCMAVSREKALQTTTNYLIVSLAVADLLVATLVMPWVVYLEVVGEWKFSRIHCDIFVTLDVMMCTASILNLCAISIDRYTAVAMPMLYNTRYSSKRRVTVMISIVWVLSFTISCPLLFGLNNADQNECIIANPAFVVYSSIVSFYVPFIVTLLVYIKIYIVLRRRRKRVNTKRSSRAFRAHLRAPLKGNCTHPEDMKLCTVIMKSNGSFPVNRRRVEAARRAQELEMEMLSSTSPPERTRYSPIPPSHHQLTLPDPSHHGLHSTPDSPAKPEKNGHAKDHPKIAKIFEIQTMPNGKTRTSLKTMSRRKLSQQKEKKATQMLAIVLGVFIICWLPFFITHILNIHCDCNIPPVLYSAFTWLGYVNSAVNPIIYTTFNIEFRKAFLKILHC
#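 Agonist mode: compounds alone added to overnight-plated D2 PathHunter cells for 90 min at 37 C, with 57 uM final dopamine (EC100) defining full response. Beta-arrestin recruitment detected by chemiluminescent reagent, read after 1 h at ambient temperature.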
# PINK1 expr mod = changes PINK1 expression; PINK1 immunofluorescence, high-content cytometry, 24 h; AID 624263; Potency, µM (series often up to 76.6 µM), for inactives: top-dose activation (PINK1 increase), most hits filed as activators; hit rate 0.2% among 410,000; active = well fitted activation curve with a large enough effect; inconclusive = small, poorly fitted or top-dose-only effect; inactive = flat fitted curve, though single readings scatter; cell line not stated here;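 also: potency is read from the fitted curve at half-maximal effect; % of control where 0% means no effect; nearly all actives have a fitted effect of over 65% in size; a mitochondrial uncoupler was the plate control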
#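 Decision-based qHTS: stable cells, 24 h exposure to five compound concentrations, CCCP as control. Fixed cells stained for PINK1 plus nuclear, mitochondrial and cell markers, cytometer read.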
# TRPML1 blocker = inhibitors of human TRPML1 channel; hit rate 0.02% among 390,000; TRPML1-inducible cells, Ca2+ dye fluorescence, FDSS; stronger effect = lower value; inhibition of EC80 agonist-evoked calcium signal; Q9GZU1; AID 624415; activity change, negative = inhibition, % (no concentration beside the values); in the data active means activity change below about -50%; inconclusive means about -30% to -50%; inactive means above about -30%;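 also: stimulus is agonist 54-4 at its EC80 concentration; % is scaled to controls: 0 for no effect and ±100 for the full control effect; compound concentration not given in the record; the text of the record puts the active cut at -80%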
#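 Tet-induced TRPML1-DL cells loaded with Ca8 no-wash calcium dye were read kinetically on FDSS. Compound addition was followed by EC80 agonist 54-4 (4 uM final); inhibition was read over 110 s.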
# Six1-Eya2 inh = blocks human Six1 binding to Eya2. AlphaScreen GST-Six1/His-Eya2 binding, biochemical; stronger effect = lower value; control for the full effect not named in the record. activity change, % (concentration not given with the values). hit rate 0.56% among 360,000. AID 651725; in the data active = activity change below about -65%; inconclusive = about -30% to -65%; inactive = above about -30%; also: % is scaled to controls: 0 for no effect and ±100 for the full control effect
#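 Compounds are tested against tagged Six1 and Eya2 proteins bridged by glutathione donor and nickel acceptor beads; after a one-hour incubation at 37 °C without light, AlphaScreen emission is recorded.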
# Starred values were filed as active, the others as inactive; ? = inconclusive; nt = no result given; [ ] = another dose, or the depositor's remark.
# Start of the data: the first five entries, ahead of the listing:
SMILES,CtBP-E1A blk,TRPML1 ag,D2 ag,PINK1 expr mod,TRPML1 blocker,Six1-Eya2 inh
COC(=O)CN(c1ccccc1)S(=O)(=O)c1ccccc1,4,-0.7,0.1,-1.8%[38.3 µM],1,4
Cc1cc(C)cc(SCc2noc(C(=O)NC(C)C)c2C(=O)NC(C)C)c1,1,-0.1,0.8,2.6%,4,3
O=[N+]([O-])c1ccc(OCCCn2cncn2)cc1,-1,-0.5,1.5,0.3%,6,-6
CCCCN(C(=O)CCC(=O)Nc1cc(C)on1)C(C(=O)NC1CCCC1)c1cccc(OC)c1 (centres undefined),-3,1.1,-1.9,-0.4%,6,-6
Cc1ccc(O)c(C(=O)c2cnc3c(c2)CN(C)C(=O)N3)c1,1,0.2,-0.2,8.0%[38.3 µM],10,-2

# This part in full, repeating the preview:
SMILES,CtBP-E1A blk,TRPML1 ag,D2 ag,PINK1 expr mod,TRPML1 blocker,Six1-Eya2 inh
COC(=O)CN(c1ccccc1)S(=O)(=O)c1ccccc1,4,-0.7,0.1,-1.8%[38.3 µM],1,4
Cc1cc(C)cc(SCc2noc(C(=O)NC(C)C)c2C(=O)NC(C)C)c1,1,-0.1,0.8,2.6%,4,3
O=[N+]([O-])c1ccc(OCCCn2cncn2)cc1,-1,-0.5,1.5,0.3%,6,-6
CCCCN(C(=O)CCC(=O)Nc1cc(C)on1)C(C(=O)NC1CCCC1)c1cccc(OC)c1 (centres undefined),-3,1.1,-1.9,-0.4%,6,-6
Cc1ccc(O)c(C(=O)c2cnc3c(c2)CN(C)C(=O)N3)c1,1,0.2,-0.2,8.0%[38.3 µM],10,-2
CCn1cc(C(=O)NCc2ccc(C)cc2)c(=O)c2cc(S(=O)(=O)N3CCc4ccccc4C3)ccc21,nt,-0.7,nt,0.9%,-13,nt
S=C(Nc1ccc(-c2nc3ccccc3[nH]2)cc1)Nc1cccnc1,-23,0.0,-2.5,?,-5,-15
O=C(Nc1ccccn1)NC1CCS(=O)(=O)C1 (centres undefined),2,-0.4,-0.5,1.1%[38.3 µM],5,1
Cc1cc(=O)[nH]c(N2CCCCC2)n1,-1,-0.3,-1.1,2.0%,5,8
COc1ccc(NC(=O)C2CCN(S(=O)(=O)c3ccc(N4CCCC4=O)cc3)CC2)cc1OC,0,-0.7,-7.9,4.6%,57,-1
CC(=O)c1cccc(NC(=O)N2CCCC2C(=O)Nc2cccc(C)c2)c1 (centres undefined),3,-0.2,-7.5,-0.4%,0,2
O=C(Nc1nnc(-c2ccncc2)o1)c1ccccc1,-17,-0.3,-1.4,3.1%,12,-16
CCn1c(SCC(=O)C(C)(C)C)nnc1-c1ccccc1OC,-5,0.6,-3.7,0.1%,-11,-4
O=C(Nc1ccccc1N1CCN(C(=O)c2ccc(Cl)cc2)CC1)c1cc(Br)ccc1Cl,-12,3.0,-1.2,-2.4%,79,-8
O=C(CS(=O)(=O)Cc1ccccc1)N1CCN(c2ccccc2F)CC1,-6,-0.3,-1.7,-1.8%,20,-2
c1coc(-c2nc3ccccc3nc2-c2ccco2)c1,5,-0.7,3.2,1.7%[38.3 µM],-4,-10
CCOC(=O)N1CCN(C(=O)C2CCN(S(C)(=O)=O)CC2)CC1,-10,0.4,0.1,-0.3%[38.3 µM],-4,-3
COc1ccc(-c2cn3c4c(sc3n2)CCCC4)cc1,5,-0.4,-1.6,nt,-2,5
CCCCC1=CC2=CC(=O)C(C)(OC(=O)CC)C(=O)C2=CN1c1ccccc1 (centres undefined),-9,0.2,1.9,2.1%,-7,-11
O=C1NC[C@H](c2ccccc2)OC(=O)[C@@H](Cc2ccc(F)cc2)CC/C=C/C[C@H]1CC(=O)N(CCO)Cc1ccccc1,-2,0.2,-9.8,-1.5%,8,-2
O=C(CCN1C(=O)CC1c1ccco1)N1CCOCC1 (centres undefined),0,-0.2,-2.9,1.0%,nt,9
COc1ccc(OC)c(NC(=O)COC(=O)c2c3c(nc4ccccc24)CCCC3)c1,-6,2.0,-0.7,-17%[38.3 µM],2,?
O=C(Nc1ccc(-c2csc(Nc3ccc(Cl)cc3)n2)cc1)c1ccccc1,0,-0.5,-0.4,7.5%,57,-6
O=C(NCc1ccc(N2CCCC2=O)cc1)c1cnccn1,1,-0.3,-3.8,0.5%,-3,-2
NC(=O)c1c(NC(=O)c2ccc(N3C(=O)CCC3=O)cc2)sc2c1CCCC2,nt,-0.8,-1.7,0.9%,10,-68*
CC(C)CNC(=O)c1cc(-c2ccco2)on1,5,0.0,-0.8,7.1%[38.3 µM],-3,0
CCOC(=O)COc1ccc(CC)cc1C(=O)c1ccn2nc(-c3ccc(Cl)cc3)cc2n1,nt,0.7,nt,3.1%,-1,nt
O=C(NCc1ccccc1)C1CCN(S(=O)(=O)c2cc([N+](=O)[O-])ccc2Cl)CC1,5,1.3,5.1,-0.8%,-5,2
Cc1cc(C)nc(SCC(=O)Nc2ccc3c(c2)OCO3)n1,6,1.7,-12,0.6%,13,4
O=C(NCc1ccccc1)c1ccc2c(c1)nc1n2CCCCC1,nt,0.3,nt,0.9%,46,nt
COC(=O)C1=C(C)N(Cc2ccccc2)C(=NCc2ccccc2)N[C@H]1c1cccc(C(F)(F)F)c1,2,-0.4,4.2,-1.1%,-4,-3
CCC(CO)(CO)N(CC(=O)Nc1ccc(OC)cc1)CC(=O)Nc1ccc(OC)cc1,3,3.2,3.6,-3.1%,-3,0
O=C(c1cccn1-c1nnc(N2CCCCC2)s1)N1CCN(c2ccccc2)CC1,nt,1.8,nt,-0.3%,-14,nt
COc1ccc(F)cc1S(=O)(=O)N1CCCN(S(=O)(=O)c2cc(F)ccc2OC)CC1,2,-1.0,0.7,-0.3%,0,-2
Cc1ccc(NC(=O)C2CCCN(c3ncccn3)C2)cc1C (centres undefined),-2,1.8,-1.0,-0.6%,-2,-8
COCCNc1ncnc2c1ncn2[C@H]1CN(Cc2ccc(-c3ccccc3)cc2)C[C@@H](CO)O1,3,0.8,?,1.6%,nt,2
NS(=O)(=O)c1ccc(N2N=C(c3ccccc3)CC2c2cccc(Cl)c2)cc1 (centres undefined),26,-0.2,-1.6,-1.0%,21,39
CC(=O)Nc1nc2c(C)cc(NC(=O)C3CCCCC3)cc2s1,4,-0.5,3.6,7.3%,4,-1
CCOc1ccccc1OCC(=O)Nc1nc2ccccc2[nH]1,4,-0.3,-3.5,2.4%,4,-20
CC(C)CCNC(=O)c1ccc(CS(=O)(=O)Cc2ccccc2F)o1,5,-0.2,1.0,1.2%,-2,8
Cc1nc2ccccc2n1/N=C/c1cccnc1,-5,0.9,1.3,-2.7%,-5,-1
CC(C)n1c(CN2CCN(Cc3ccccc3)CC2)nc2ccccc21,-13,1.4,-2.6,-0.4%,1,-5
CCCCCn1c(=O)[nH]c2cc(C(=O)NCCCN3CCCCC3)ccc2c1=O,5,-0.4,-1.5,-2.6%,-8,-4
CCN(CC)CCCNC(=O)c1ccc(-c2nc(CN3CCc4ccccc43)c(C)o2)cc1,nt,1.1,nt,-0.3%,1,nt
CCCC(=O)Nc1nc2nc(-c3ccccc3)cc(=O)n2[nH]1,-19,5.4,-1.4,2.0%,0,-15
COc1ccc(NS(=O)(=O)c2ccc(NC(=O)c3ccc(CN4CCOCC4)cc3)cc2)cc1,0,0.7,1.4,1.9%,-9,2
C=CCNC(=O)COC(=O)c1oc2ccccc2c1CSC1CCCCC1,8,0.1,-3.3,7.6%,-9,1
COCc1ccc(C(=O)N2CCCC(N3CCN(c4ccc(F)cc4)CC3)C2)o1 (centres undefined),3,-0.4,-1.4,-0.6%,-13,-1
CCOC(=O)c1cnc2cc(-c3ccc(Br)cc3)nn2c1C,nt,nt,-1.7,3.0%,nt,-5
CCCc1nn(C)c(C(=O)Nc2cccc(C)c2)c1Cl,16,1.6,1.0,?,-16,26
C#CCOCCOCCOCCNc1nc(N2CCN(C(=O)CCCCCCCCCCNC(=O)[C@@H](CCC(=O)O)n3cc(CCCCCN)nn3)CC2)nc(N2CCN(C(=O)CCCCCCCCCCNC(=O)[C@H](CO)n3cc(CCCSC)nn3)CC2)n1,?,1.2,-3.2,0.4%,-8,-13
CC1(C(=O)NCc2ccccc2)CCC(=O)N1C1CC1 (centres undefined),3,-0.5,4.3,0.6%,nt,11
Cc1cccc(OCCNc2cc(N3CCN(C)CC3)ccc2[N+](=O)[O-])c1,-8,-0.3,-4.0,6.2%,8,-6
Cc1csc(SCC(=O)N2CCN(S(=O)(=O)c3ccc(Cl)cc3)CC2)n1,nt,-0.4,0.8,-0.5%,-1,1
CCOC(=O)c1c(CSc2cccs2)n(C)c2cc(Br)c(O)c(CN(C)C)c12,-7,2.7,-3.3,-0.7%,48,-26
COc1ccc(N2C(=O)C3ON(C4SC(=S)N(C)C4(C)C)C(c4ccc([N+](=O)[O-])cc4)C3C2=O)cc1 (centres undefined),7,0.5,-2.8,2.1%,52,-2
O=C(Nc1ccccc1)N1CCC(n2c(=O)[nH]c3ccccc32)CC1,-15,-0.2,-6.5,0.3%,12,-1
Nc1nc(CN2CCC(Cc3ccccc3)CC2)nc(Nc2ccccc2)n1,-7,-0.2,-2.2,0.3%,27,-6
Cc1cc(C)nc(NCC(O)CNc2ccccc2C)n1 (centres undefined),-14,1.8,-2.3,-2.3%,3,-1
O=C(Nc1ccc2c(c1)CCCN2C(=O)c1cccs1)c1c(F)cccc1Cl,nt,0.8,-1.8,0.4%,10,-4
# The list goes on.
SMILES,CtBP-E1A blk,TRPML1 ag,D2 ag,PINK1 expr mod,TRPML1 blocker,Six1-Eya2 inh
COc1ccc(-c2cc(C(=O)Oc3cccc(C)c3)c3ccccc3n2)cc1,nt,0.3,nt,19%,7,nt
CC(=O)c1ccc(NC(=O)CCC(=O)OCC(=O)c2cccc([N+](=O)[O-])c2)cc1,7,-0.4,-15,0.5%,5,1
N/C(=N\OC(=O)COc1ccc(Br)cc1Cl)c1ccccn1,1,2.4,-0.6,-0.3%,-3,0
CCOC1=C2CN(S(=O)(=O)c3ccc(C)cc3)[C@H](c3ccccc3)C[C@@H]2N(S(=O)(=O)c2ccc(C)cc2)[C@H](c2cccs2)C1,7,-0.3,-3.5,0.1%,-14,3
CCOC(=O)C1(CCOc2ccccc2)CCN(Cc2cccc3nonc23)CC1,nt,4.3,-7.2,0.6%,-1,13
CC1CCc2sc(C(=O)NNC(=S)NC3CC3)cc2C1 (centres undefined),5,2.0,-7.8,-1.5%,21,0
COc1ccc(OC)c(NC(=O)C2CCN(Cc3cnn(-c4ccccc4)c3-n3cccc3)CC2)c1,-26,-1.0,4.3,-1.5%,-5,-27
CCCn1c(N)c(C(=O)CSc2nncs2)c(=O)[nH]c1=O,nt,-1.1,2.6,0.6%,10,-5
COc1ccc(C(=O)CSc2nnc(Cn3cnc4ccccc43)o2)cc1,4,-0.8,-1.5,1.4%,1,-6
COc1ccc2c(C)c(CC(=O)NCc3ccc(C)cc3)c(=O)oc2c1OC,nt,-1.3,nt,0.7%,-29,nt
O=C(CN1C(=O)CC(c2ccccc2)=Nc2ccccc21)NCc1ccco1,-2,-0.9,-2.9,-1.3%,13,-3
COC(=O)c1ccccc1SC1CC(=O)N(c2ccccc2)C1=O (centres undefined),10,0.0,-1.5,-4.1%,3,4
